High-throughput results as filed in PubChem.
Calb biofilm kill: mixture kills Candida albicans biofilm cells. AID 1242. inhibition, % at 7.6 µM. hit rate 0.02% among 120,000. C. albicans biofilm persisters + clotrimazole, fluorescence viability; primary screen in compound mixtures of four per well;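 active means inhibition above 30.3% in the primary screen of four-compound pools, then above 30% when the compound was retested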;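 further: compounds exposed to preformed 24 h biofilms for 48 h; the number belongs to the whole pool; some results filed as inactive read as strong as hits; inactives centre near 12; 0% = biofilm with clotrimazole alone and 100% = kill control; retested singly at about 60 µM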
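Incubation: 24 h biofilm formation, then 48 h compound exposure, 37 °C | Material: C. albicans biofilms | Buffer or medium: RPMI/MOPS medium, pH 7.0 | Measured by: 2-h Alamar Blue fluorescence, 535/590 nm excitation/emission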
Numbers without * were called inactive. An excerpt, so the mix of outcomes need not match the whole.

mol,Calb biofilm kill
COc1ccc(C2CC(c3ccccc3)=NN2S(=O)(=O)c2ccccc2)c(OC)c1 (centres undefined),9.7
Cn1c(=O)[nH]c2ccc([N+](=O)[O-])nc21,4.3
O=c1c(-c2n[nH]c(=S)o2)cccn1Cc1ccccc1,12.2
O=c1oc2cc(O)ccc2cc1-c1nc2c(s1)CCc1ccccc1-2,4.4
Cc1cc([N+](=O)[O-])nn1CC(=O)NCc1ccco1,13.2
CN(C)/C=C1\C(=O)NN=C1C(F)(F)F,11.1
O=C(O)C1CSC(c2ccc(O)c([N+](=O)[O-])c2)N1 (centres undefined),12.5
Cc1c(Cl)cccc1NC(=S)N(CCCN1CCOCC1)Cc1cccs1,6.8
CN(C)C(=O)OCC1COc2ccccc2O1 (centres undefined),7.4
O/N=C/c1ccccc1Oc1ccc(Cl)cc1,9.4

Other records.
mol,Calb biofilm kill
COCCSc1nc(N)c2c3c(sc2n1)CN(C)CC3,13.5
CC(=O)c1ccc(N2CCN(c3ccc(C(F)(F)F)cn3)CC2)cc1,17.2
c1ccc(OCCOc2cccc3cccnc23)cc1,27.1
Cc1nnc(SCC(=O)NC23CC4CC(CC(C4)C2)C3)n(N)c1=O,13.2
O=C(c1ccc(N2C(=O)C3CCCCC3C2=O)cc1)N1CCCCC1 (centres undefined),10.3
COc1cc(OC)cc(C(=O)NCC(=O)OCc2csc(-c3ccccc3)n2)c1,23.0
COc1cc(S(=O)(=O)Nc2cccc(C)c2)ccc1NC(=O)c1cccnc1,9.1
Nc1nnnn1CC(=O)N/N=C/c1ccccn1,16.9
CCOC(=O)N1CCC(NC(=O)C2=CCN(S(=O)(=O)c3ccc(OC)cc3)CC2)CC1,24.0
COc1ccc(CC(=O)Nc2cccc(C(=O)Nc3cccc(C)c3)c2)cc1,9.4

The results go on.
mol,Calb biofilm kill
COc1cc2c(cc1OC)C(C(=O)N(C)Cc1ccccc1)C(c1cccnc1)N(C)C2=O (centres undefined),15.9
CCC1C(=O)NCCN1Cc1nc(-c2ccc(C)s2)oc1C (centres undefined),26.1
O=C1CSCN1c1cc(Cl)ccc1Cl,-4.7
CNC(=S)N1N=C(c2ccc(C)cc2)CC1c1ccc(N(C)C)cc1 (centres undefined),12.8
O=C(Nc1cccc([N+](=O)[O-])c1)c1cnccn1,8.9
CC(C)n1c(SCC(=O)Nc2ccccc2)nc2c1c(=O)n(C)c(=O)n2C,3.6
COc1ccc(-c2c(-c3ccc(OCC(=O)NN)cc3O)n[nH]c2C)cc1,16.1
Nc1nc(CSC(=S)N2CCOCC2)nc(Nc2ccccc2)n1,13.0
CCc1ccccc1NC(=O)CSc1nc2ccccc2n1CC(=O)N1CCCC1,8.1
CC(=O)N/C(=C/c1ccccc1)C(=O)NC(Cc1ccccc1)C(=O)O (centres undefined),11.8

Among those listed so far, two contain a COOH group:
mol,Calb biofilm kill
O=C(O)C1CSC(c2ccc(O)c([N+](=O)[O-])c2)N1 (centres undefined),12.5
CC(=O)N/C(=C/c1ccccc1)C(=O)NC(Cc1ccccc1)C(=O)O (centres undefined),11.8

(more compounds)
mol,Calb biofilm kill
COc1ccc(C2=NN(S(C)(=O)=O)C(c3ccc4nccnc4c3)C2)cc1 (centres undefined),11.0
CC1CCC2(CC1)NC(=S)N(C(C)(C)C)N2 (centres undefined),17.5
Cc1cccn2cc(-c3ccc(Cl)cc3)nc12,17.2
O=C(Nc1cccc(C(F)(F)F)c1)Nc1ccc(N2CCCC2)c(S(=O)(=O)Nc2ccccc2Cl)c1,-14.4
Cc1ccc(CSCCC(=O)NCCC2=CCCCC2)cc1,13.3
Cc1ccc2cc(CCNC(=O)Cc3cccs3)c(=O)[nH]c2c1,4.1
CCOC(=O)c1c(N2C(=O)C3C4C=CC(C4)C3C2=O)sc2c1CCC(C)C2 (centres undefined),10.5
COc1ccc(C)cc1NC(=O)C(OC(=O)c1ccc(Cl)c(S(=O)(=O)N(C)c2ccccc2)c1)c1ccccc1 (centres undefined),-8.3
CN(C)/C=N/C(=S)Nc1ccc(Cl)cc1Cl,10.3
O=C(c1cccc([N+](=O)[O-])c1)N1CCN(c2ccc(Cl)cc2)CC1,10.6

Continued:
mol,Calb biofilm kill
CCOC(=O)C1(Cc2ccccc2C(F)(F)F)CCN(C(C)CCn2cccn2)CC1 (centres undefined),17.8
COc1cc(NC(=S)NC(=O)c2ccccc2F)ccc1NC(=O)c1cccs1,5.8
O=C(Oc1c(CN2CCOCC2)cc(Cl)c2cccnc12)c1ccccc1Cl,16.3
CC(C)NC(=O)c1ccccc1NC(=O)C(C)Oc1ccccc1 (centres undefined),20.4
Cc1cc(N=Nc2ccc(C)c(N=Nc3cc(C)c(N)cc3N)c2)c(N)cc1N,21.8
CNc1nc(SC(C)C(=O)Nc2ccc(Cl)c(Cl)c2)nc(N2CCOCC2)n1 (centres undefined),13.5
c1ccc(-c2cn3c(n2)-c2ccccc2C3)cc1,18.5
COc1ccc(-n2c(-c3ccco3)nc3c(cnn3-c3ccc(C)cc3)c2=O)cc1,24.1
CCOc1ccc(NC(=S)NC(=O)c2ccco2)cc1,20.1
Cn1c(=O)c2c(ncn2CC(=O)OCC(=O)NCc2ccc(Cl)cc2)n(C)c1=O,9.6

Next entries follow:
mol,Calb biofilm kill
CCOc1ccc(-n2c(N)c(C(=O)N3CCN(C)CC3)sc2=S)cc1,24.0
CCOC(=O)c1[nH]ncc1CN1CCN(Cc2ccccc2)C(CCO)C1 (centres undefined),17.2
O=C(C1CCN(Cc2cn[nH]c2-c2ccc(F)cc2F)CC1)N1CCOCC1,9.8
NNC(=O)CSc1c(-c2cccs2)[nH]c2ccccc12,18.8
COc1cc(-c2noc(C)n2)cc(OC)c1OC,19.1
CCC(C)(C(=O)NC1CCCCC1)N(CC1CCCO1)C(=O)Cc1cccs1 (centres undefined),-2.7
Cn1c(N/N=C/c2cc3ccccc3nc2Cl)nc2ccccc21,15.7
COc1cccc(-n2c(SCC(=O)NC3CCCC3)nnc2-c2ccco2)c1,8.9
CCC(C)(C#CCN1CCCCC1)OCCC#N (centres undefined),13.2
CCOc1ccc(NC(=O)CC2C(=O)N(c3ccc(OC)cc3)C(=O)N2Cc2ccc(OC)cc2)cc1 (centres undefined),3.2

Going on with the list:
mol,Calb biofilm kill
COc1ccc(O)c(/C=N/NC(=O)c2ccc(CSc3nc(C)cc(C)n3)cc2)c1,-2.2
CCc1cc(C(N)=O)c(NC(=O)c2ccc(OC)cc2)s1,6.3
O=c1cc(N2CCCC2)c2ccccc2o1,30.4
COc1cccc(CNC(=S)Nc2cc(OC)ccc2OC)c1,1.1
O=C(N/N=C\c1cccc(OC(=O)c2ccco2)c1)c1ccc2c(c1)OCO2,13.0
CC1C2(C)OCC(C#N)(C(=N)O2)C1(C#N)C#N (centres undefined),20.3
Oc1ccc(-c2csc(Nc3ncccn3)n2)cc1,-0.9
O=C(N/N=C\c1cc([N+](=O)[O-])ccc1N1CCOCC1)c1ccccn1,14.4
Cc1cccc(S(=O)(=O)NCCc2cn3ccccc3n2)c1,10.3
O=C(NCCc1ccccc1)C1CCCN(S(=O)(=O)c2cccc3nsnc23)C1 (centres undefined),-0.9

The list continues.
mol,Calb biofilm kill
CCn1cc(C(=O)Nc2sc(C)c(C)c2C(=O)OC)cn1,14.0
Cc1cccc(-c2nsc(SCC(=O)NCC3CCCO3)n2)c1 (centres undefined),13.8
COc1nc(NCc2ccco2)nc(NC2CCCCC2)n1,15.8
CC(=O)N1CCc2cc(C(=O)CN3CCN(c4ccccn4)CC3)ccc21,33.2
COCCN(CC(=O)NCc1ccc2c(c1)OCO2)C(=O)CCC(=O)Nc1nccs1,19.4
COc1ccc(C(=O)C[n+]2ccc(C)cc2)cc1,13.4
CSc1nc(C)c(C(=O)Nc2ccccc2)c(-c2ccco2)c1C#N,15.5
O=C(/C=C/c1ccco1)Nc1ccccc1N1CCCCC1,7.5
Cc1cccc(N2C(=O)C(O)=C(C(=O)c3cccs3)C2c2cccc(Oc3ccccc3)c2)n1 (centres undefined),20.8
CCN1CCN(C(=O)Cn2nc(-c3ccc(Cl)cc3)ccc2=O)CC1,9.8

Remaining list, next part.
mol,Calb biofilm kill
CCNc1nc(NCC)n2c(SCC(=O)Nc3ccccc3)nnc2n1,5.3
COC(=O)c1c(N2C(=O)CC(Sc3ncccc3C(=O)O)C2=O)sc(C)c1C (centres undefined),5.8
CC(C)(C)C(=O)Nc1ccc(C(=O)N/N=C/C2CC3C=CC2C3)cc1 (centres undefined),11.8
CCCC1CCc2c(sc(NC(=O)OCC)c2C#N)C1 (centres undefined),14.4
COc1ccccc1-n1cnc2cc(NCc3ccccc3O)ccc21,23.6
COc1cc(/C=C/C(=O)O)cc(S(=O)(=O)NCC2CCCO2)c1OC (centres undefined),30.4
COC(=O)c1cc(S(=O)(=O)Nc2nn(C)c3cccc(F)c23)oc1C,-0.7
Cc1ccc(S(=O)(=O)N(Cc2ccccc2)c2ccccc2C(=O)NCc2cccnc2)cc1,11.6
O=C(C1CCC(CNS(=O)(=O)c2ccc(F)cc2)CC1)N1CCOCC1 (centres undefined),5.9
OCCNCCNCc1ccc(-c2ccccc2)cc1,-2.6

Next part.
mol,Calb biofilm kill
NC(=O)C1CCN(C(=O)c2ccc3c(=O)n(Cc4ccco4)c(SCC(=O)c4ccc(F)cc4)nc3c2)CC1,25.0
CN(C)C(C)(C)/C=C/C(O)(c1ccccc1)c1ccccc1,24.0
O=C(CCn1cnc2ccccc21)N/N=C/c1ccccc1O,11.3
COc1cc(/C=N/NC(=O)CNc2n[nH]c(=O)[nH]c2=O)ccc1OCc1ccccc1,17.0
CCOC(=O)N=Nc1c(O)n(CC)c2ccccc12,15.9
CCOc1cc(N2CCOCC2)c(OCC)cc1NC(=O)C(C)C,7.0
O=C(NCCc1c[nH]c2ccccc12)c1cccc(S(=O)(=O)Nc2ccccc2Cl)c1,12.3
CCOC(=O)CNC(=S)N(Cc1ccccc1)Cc1cccs1,6.1
COc1ccc2[nH]c3c(=O)n(CCCN4CCOCC4)cnc3c2c1,25.0
CC(C)CC(NC(=O)c1ccccc1)C(=O)N/N=C/c1ccco1 (centres undefined),15.5

The results go on:
mol,Calb biofilm kill
CC(=O)c1cccc(NC(=O)C2C3C=CC(C3=C(c3ccccc3)c3ccccc3)C2C(=O)O)c1 (centres undefined),6.2
O=C(CSc1ccccc1)Nc1ccc(S(=O)(=O)Nc2ncccn2)cc1,-0.4
CC1(C)CC(=O)c2sc(NS(=O)(=O)Cc3ccccc3)nc2C1,16.9
Cn1c(=O)c(C(=O)CN2CCCCC2)c(N)n(Cc2ccccc2)c1=O,13.9
COc1ccc(CCNC(=O)CCCCCNc2nc(=S)[nH]c3ccccc23)cc1OC,0.3
Cc1cc(NC(=O)CS(=O)(=O)Cc2ccccc2)no1,0.3
CC(C)(C)NC(=O)NC(=O)CN1CCN(Cc2ccccc2)CC1,10.4
Cc1ccc(N2C(=O)N(CC(=O)C(C)(C)C)c3ccccc3S2(=O)=O)cc1,16.8
Cc1ccc(C)c(S(=O)(=O)N2CCCOC2CNC(=O)C(=O)NCCC2=CCCCC2)c1 (centres undefined),5.3
FC(F)(F)c1cccc(NC(=S)N2CCN(c3ccccn3)CC2)c1,5.0

Remaining list, next part.
mol,Calb biofilm kill
O=C1CC(c2ccccc2)CC(O)=C1C=NCCN1CCN(Cc2ccccc2)CC1 (centres undefined),0.3
CC(C(c1cccs1)c1c(N)n(C)c(=O)n(C)c1=O)[N+](=O)[O-] (centres undefined),10.2
CCOC(=O)c1cc(CC)sc1NC(=O)CC1Sc2ccc(C(F)(F)F)cc2NC1=O (centres undefined),13.4
COc1ccc(NS(=O)(=O)c2cc(NC(=O)c3ccco3)ccc2N2CCCCC2)cc1,5.7
CCCn1c(=O)c(C(=O)NCc2ccco2)c(O)c2ccccc21,-9.8
Cc1nn(C)cc1CN(C)C(=O)CC12CC3CC(CC(C3)C1)C2,13.3
CCOC(=O)Cn1c2ccc(C)cc2c2nc(C)sc21,17.4
COc1ccc(CCC(=O)NCc2cn3ccccc3n2)cc1,5.3
CC1CCCCC12NC(=O)N(CC(=O)Nc1ccccc1N1CCOCC1)C2=O (centres undefined),12.9
CCCC(=O)Nc1ccc(-c2csc(N/N=C\c3ccncc3)n2)cc1,4.8

The list goes on:
mol,Calb biofilm kill
O=C(COc1ccccc1)Nc1ccc(S(=O)(=O)Nc2ncccn2)cc1,12.5
CC(=O)Nc1ccc(NC(=O)COC(=O)c2c3c(nc4ccccc24)CCN(Cc2ccccc2)C3)cc1,14.1
CCOc1ccc(-c2cn(-c3cccc(SC)c3)c(=O)[nH]2)cc1,14.0
COc1ccc(N(C(=O)C(C)C)S(=O)(=O)c2cccc([N+](=O)[O-])c2)cc1,17.6
Cc1ccc(CSCCNS(=O)(=O)c2ccc(C)cc2)cc1,23.3
CCCC1CCC(c2ccc(/C(N)=N/O)cc2)CC1 (centres undefined),7.9
C[C@H](NC(=O)OC(C)(C)C)C(=O)N/N=C/c1ccc2nccnc2c1,16.1
CCCc1c(NC(=O)Nc2ccc(F)cc2)cnn1-c1ccc(Cl)cc1,23.7
CN(C)c1nc(N(C)C)nc(N2CC(=O)N(c3ccccc3)C2=N)n1,3.0
CCOCCCNc1nc2c(C)cccn2c(=O)c1/C=C1\SC(=S)N(C(C)CC)C1=O (centres undefined),19.2

Reformatted with each value named: part of the list above.
> Cc1ccc(S(=O)(=O)N(Cc2ccccc2)c2ccccc2C(=O)NCc2cccnc2)cc1
  Calb biofilm kill = 11.6
> O=C(C1CCC(CNS(=O)(=O)c2ccc(F)cc2)CC1)N1CCOCC1 (centres undefined)
  Calb biofilm kill = 5.9
